High-throughput results from PubChem.
CBX7 AlphaScr: CBX7 chromodomain binding inhibitors, primary screen, biochemical, AlphaScreen; normalised signal (fraction of DMSO) (no concentration beside the values); 66,000 compounds, 1.1% hits; Chromobox protein homolog 7 (Homo sapiens), O95931; AlphaScreen His6-CBX7 / biotin-H3K27me3 peptide binding; hits give low values; in the data active means normalised signal below about 0.5;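 further: 100 nL library stock added to about 20 µL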
Target sequence (O95931 whole entry, looked up): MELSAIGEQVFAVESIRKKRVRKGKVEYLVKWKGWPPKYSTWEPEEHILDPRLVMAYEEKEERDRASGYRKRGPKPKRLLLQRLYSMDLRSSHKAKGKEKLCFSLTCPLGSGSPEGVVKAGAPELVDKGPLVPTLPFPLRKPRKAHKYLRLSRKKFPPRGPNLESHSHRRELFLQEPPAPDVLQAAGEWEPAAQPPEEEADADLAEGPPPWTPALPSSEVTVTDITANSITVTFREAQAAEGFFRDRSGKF
CBX7 AlphaScr z-score: also measured in CBX7 AlphaScr; calls as there; z-score; measured here: z-score of CBX7 signal; some inactives read as strong as hits; reference of the scale not given here;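 same signal on another scale; lower means less binding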
The depositor's hits bear a star; & = joins results of further samples.

SMILES	CBX7 AlphaScr	CBX7 AlphaScr z-score
Cc1ccc(C(C)C)c(OCc2nnc(NC(=O)c3ccc(Cl)cc3Cl)s2)c1	1.1	0.41
COc1cccc(-c2nc3sc4c(c3c(=O)n2CC(=O)Nc2ccc(C)cc2)CCCC4)c1	1.1	1.6
Cc1cccc(OCC(O)Cn2c(=N)n(CCN3CCOCC3)c3ccccc32)c1 (configuration not stated)	0.93	-1
COc1ccc(C(=O)NCCc2c(C)[nH]c3c(C)ccc(F)c23)cc1OC	0.88	-1.8
CCN1CCN(CCCNC(=O)c2cc3sccc3n2Cc2ccc(Cl)cc2)CC1	0.93	-1.7
COc1ccccc1C1c2c(-c3ccc(C)cc3)n[nH]c2C(=O)N1c1ccc(F)cc1 (configuration not stated)	0.74	-0.52
CCOC(=O)C1CCN(c2c(NCc3ccc(C(=O)NCCC(C)C)cc3)c(=O)c2=O)CC1	1.1	2.6
COc1ccc(-c2nc3ncccn3c2NC2CCCC2)cc1	0.96	-1.2
CCn1c(NC(=O)Nc2ccccc2C)cc2sccc21	1	0.12
Cc1nc2ccc(S(=O)(=O)NC(CC(C)C)C(=O)Nc3ccc(Cl)cc3)cc2s1 (configuration not stated)	1	0.71
O=C(c1ccc(CNc2c(N3CCCCC3)c(=O)c2=O)cc1)N1CCN(c2ccccn2)CC1	0.94	-0.13
Cc1ccc(-c2ccc(=O)n(CC(=O)NCc3ccccn3)n2)cc1	0.93	-2.4
C=CCn1c(C2CC(=O)N(c3ccc(C)c(Cl)c3)C2)nc2ccccc21 (configuration not stated)	0.99	-0.036
CCOc1cc2c(cc1OCC)C1C(C(=O)NCCc3cccc(C)c3)c3ccccc3C(=O)N1CC2 (configuration not stated)	1	0.33
CCOC(=O)c1sc(NC(=O)c2cccnc2)nc1C	0.97&0.97	-0.49&-0.56
c1ccc(C2CC(c3c[nH]c4ccccc34)n3ncnc3N2)cc1 (configuration not stated)	0.88	-2.2
CCC(C)(NC(=O)c1ccc(=O)[nH]c1)C(=O)NC1CCCC1 (configuration not stated)	0.99	-0.13
O=C(Nc1ccc(Cl)cc1Cl)c1cc2nc(-c3ccc(Cl)c(Cl)c3)cc(C(F)(F)F)n2n1	1.1	0.34
CC(C)N(Cc1nc(-c2ccccc2)no1)C(=O)c1ccc(C(C)(C)C)cc1	0.9	-1.9
COc1ccc(-c2cc(C(=O)Nc3nnc(C)s3)c3ccccc3n2)c(OC)c1	1.1	2.3
CCN(CC)S(=O)(=O)c1ccc2c(c1)N(CC(=O)Nc1ccccc1C)C(=O)CS2	1.1	1.9
Cn1c(=O)c(=O)n(C)c2cc(S(=O)(=O)N3CCCC3C(=O)Nc3nccs3)ccc21 (configuration not stated)	1.2	1.7
Cc1ccc(-n2nc3ccc(NC(=O)Cc4ccccc4)cc3n2)cc1	1	0.36
CC1CCN(S(=O)(=O)c2ccc3c(c2)N(CC(=O)NC2CCCC2)C(=O)CO3)CC1	1.1	2.2
O=C(Cn1ncc2ccsc2c1=O)NCc1ccc2c(c1)OCO2	1	-0.13

The last 3 entries of the part before open the next one:
SMILES	CBX7 AlphaScr	CBX7 AlphaScr z-score
Cc1ccc(-n2nc3ccc(NC(=O)Cc4ccccc4)cc3n2)cc1	1	0.36
CC1CCN(S(=O)(=O)c2ccc3c(c2)N(CC(=O)NC2CCCC2)C(=O)CO3)CC1	1.1	2.2
O=C(Cn1ncc2ccsc2c1=O)NCc1ccc2c(c1)OCO2	1	-0.13
Cc1oc(-c2ccccc2F)nc1CS(=O)(=O)CC(=O)NCCCN1CCc2ccccc2C1	0.92	-2.2
COc1ccccc1-c1cc(C(F)(F)F)nc(N2CCCCC2)n1	1.3	15
CC(=O)Nc1ccc(Cl)c(-c2nc3ncccc3o2)c1	1.1	1.7
O=C(CSCc1cnn(-c2ccccc2)c1-n1cccc1)NCc1ccccc1Br	1	0.28
CCOc1cc2[nH]c(=O)n(CCCC(=O)N3CCN(Cc4ccccc4)CC3)c(=O)c2cc1OCC	1	0.35
O=C(NCCCN1CCC(Cc2ccccc2)CC1)c1ccc2c(c1)ncn2C1CCCCC1	0.94	-2.9
COc1ccc(C(=O)Nc2nnc(COc3ccc(Br)cc3)s2)cc1OC	1.1	0.57
CCCCNc1nc(CC)c2c(c1C#N)CCCC2	1	1.6
COc1ccccc1-c1c(C)nn2c(N3CCCCC3C)cc(C)nc12 (configuration not stated)	1.1	1.3
CCCN1Cc2cccc(C(=O)Nc3ccc(Cl)cc3)c2C1=O	1	0.6
CN(CCCNC(=O)C1CCC(=O)N1Cc1ccccc1Cl)c1ccccc1 (configuration not stated)	0.97	-0.79
Cc1ccc(Nc2c(-c3ccc(C)cc3)nc3cnccn23)cc1	0.91	-1
O=C(Nc1ccc(-c2nc3ncccc3o2)cc1)c1cccc(F)c1	0.96	-0.34
CCCCCn1c(=O)[nH]c2cc(C(=O)N3CCN(c4cc(Cl)ccc4C)CC3)ccc2c1=O	1.1	1.8
Cc1ccccc1C(=O)Nc1cccc(-c2nc3cc(Cl)ccc3o2)c1	1	0.27
COc1ccc(C2CC(=O)C3=C(C2)Nc2ccccc2NC3c2ccc(OC)cc2OC)cc1 (configuration not stated)	0.91	-0.64
CCC(C)c1ccc2oc(-c3ccc(NC(=O)c4ccc(OC)c(Cl)c4)cc3)nc2c1 (configuration not stated)	1.1	1.7
CCOC(=O)N1CCc2c(sc(NCc3ccccn3)c2C(=O)Nc2ccc(OC)cc2OC)C1	0.8	-5
COC(=O)c1ccc(Nc2nnc(-c3ccc(C(=O)NCCO)cc3)c3ccccc23)cc1	0.79	-0.82
CC1(C)CC2CC(C)(CN2c2ncnc3ccccc23)C1 (configuration not stated)	0.93	-2.3
O=C(Nc1nc(-c2ccccc2)cs1)c1ccc(Cl)cc1Cl	1&1.1	0.3&1.4
Cc1ccc(CN2C(=O)c3ccccc3Sc3ccc(C(=O)NCCCN4CCCC4)cc32)cc1	0.97	-0.43
Fc1ccc(-c2cn3nc(-c4ccccc4)c(-c4ccccc4)nc3n2)cc1	1	0.023
Cc1ccc(NC(=O)Cn2cc(S(=O)(=O)c3ccc(C)cc3)c(=O)c3cc(Cl)ccc32)cc1	0.84	-2.3
Cc1nn(C)c(C)c1S(=O)(=O)N(CC(=O)NCc1ccccn1)c1ccc(C(C)C)cc1	0.97	-0.49

A few values from the list.
CBX7 AlphaScr z-score, CCC(C)(NC(=O)c1ccc(=O)[nH]c1)C(=O)NC1CCCC1 (configuration not stated) reads -0.13
CBX7 AlphaScr z-score, CC(=O)Nc1ccc(Cl)c(-c2nc3ncccc3o2)c1 reads 1.7
CBX7 AlphaScr z-score, O=C(CSCc1cnn(-c2ccccc2)c1-n1cccc1)NCc1ccccc1Br reads 0.28
CBX7 AlphaScr, Cn1c(=O)c(=O)n(C)c2cc(S(=O)(=O)N3CCCC3C(=O)Nc3nccs3)ccc21 (configuration not stated) reads 1.2
CBX7 AlphaScr z-score, COc1ccc(C(=O)Nc2nnc(COc3ccc(Br)cc3)s2)cc1OC reads 0.57
CBX7 AlphaScr z-score, O=C(Nc1nc(-c2ccccc2)cs1)c1ccc(Cl)cc1Cl reads 0.3&1.4

The listing picks up, starting 2 compounds before the break.
SMILES	CBX7 AlphaScr	CBX7 AlphaScr z-score
Cc1ccc(NC(=O)Cn2cc(S(=O)(=O)c3ccc(C)cc3)c(=O)c3cc(Cl)ccc32)cc1	0.84	-2.3
Cc1nn(C)c(C)c1S(=O)(=O)N(CC(=O)NCc1ccccn1)c1ccc(C(C)C)cc1	0.97	-0.49
CC(C)(C)OC(=O)N1CCC(c2c(C(=O)Nc3ccc(F)cc3F)cnn2-c2ccccc2)CC1	0.93	-1.7
CCOC(=O)c1cccc(NC(=O)c2cc3sccc3n2Cc2ccc(Cl)cc2)c1	0.92	-2.3
CN(C)c1ccc(-c2nc3ccc(Cl)cn3c2Nc2ccc3c(c2)OCCO3)cc1	0.81	-3
COc1ccc(-n2ccnc2SCC(=O)Nc2ccc3c(c2)OCO3)cc1	0.56	-0.58
CCc1ccc(C(=O)CC2(O)C(=O)Nc3c(C)ccc(Cl)c32)cc1 (configuration not stated)	0.78	-6.3
CCOC(=O)C1CCN(C(=O)C2CCN(c3nnc(-n4cccc4)s3)CC2)CC1	0.95	-0.52
Cc1ccc2nc(-c3ccc(Cl)cc3)cc(C(N)=O)c2c1	1.3	0.61
COc1ccc(CN2CCCC(C(=O)Nc3ccc(OC)c(OCC(C)C)c3)C2)cc1OC (configuration not stated)	1	0.2
COc1cccc(CN2CCN(Cc3cccc4ccccc34)CC2)c1	0.84	-1.9
COc1ccc(OC)c(NS(=O)(=O)c2c(C)noc2C)c1	0.99	-0.49
COc1cc2c(cc1OC)C1C(C(=O)NCc3ccc(F)cc3)c3ccccc3C(=O)N1CC2 (configuration not stated)	1.1	0.23
CCOC(=O)N1CCC(NC(=O)CS(=O)(=O)Cc2nc(-c3ccc(C)cc3)oc2C)CC1	1.1	0.3
CC(CC(=O)NCc1ccccc1)CC1=NS(=O)(=O)c2ccccc2N1 (configuration not stated)	1.1	0.74
CCOc1ccccc1C(=O)Nc1ccc(S(=O)(=O)Nc2nccs2)cc1	0.93	-2
CC(NC(=O)c1cc(=O)[nH]c2ccc(S(=O)(=O)N3CCCCCC3)cc12)c1ccccc1 (configuration not stated)	1	0.22
CN(C)CC(=O)N1c2ccccc2CCc2ccc(N)cc21	0.99	-0.57
CCc1ccc(NC(=O)Cn2cnc3c(nnn3Cc3ccc(F)cc3)c2=O)cc1	0.82	-2.9
CCCOc1ccc(N2C(=O)CC(Nc3ccc(CCO)cc3)C2=O)cc1 (configuration not stated)	1.1	2.3
Cc1cc(C)n(CC(O)Cn2c(C)c(C)c3ccccc32)n1 (configuration not stated)	0.71	-1.9
CCC(Sc1nc(-c2ccccc2)cc(-c2ccccc2)n1)C(=O)Nc1cc(C)on1 (configuration not stated)	1.2	1.6
COc1ccc(Nc2c(-c3ccc(N4CCOCC4)cc3)nc3ncccn23)cc1OC	0.95	-0.21
COc1ccccc1NC(=O)CSc1nnc(Cc2cc(=O)[nH]c(=O)[nH]2)n1-c1ccc(F)cc1	0.98	-0.56
Cc1cccc(-n2c(Cc3cc(=O)[nH]c(=O)[nH]3)nnc2SCC(=O)Nc2ccc(F)cc2F)c1	1	0.56
COc1ccccc1CNC(=O)c1cc(Nc2cccc(SC)c2)nc2ccccc12	1.3	7.3
O=C(c1ccc(F)c(F)c1)N1CCc2c([nH]c3ccccc23)C1c1ccc(Cl)cc1 (configuration not stated)	0.78	-5.9
Later entries.
SMILES	CBX7 AlphaScr	CBX7 AlphaScr z-score
CC(NS(=O)(=O)c1ccc2c(c1)CCN2C(=O)C1CC1)c1ccccc1 (configuration not stated)	1.1	2.8
Cc1cc(OCC(=O)Nc2ccc(-c3nc4cc(Cl)ccc4o3)cc2)cc(C)c1Cl	0.94	-0.98
Cc1ccccc1-c1nc(CN2CCCC(C(=O)NCCN3CCCC3)C2)c(C)o1 (configuration not stated)	0.92	-0.99
CC(=O)N1CCc2cc(S(=O)(=O)NC(CC(C)C)C(=O)NC(C)c3ccccc3)ccc21 (configuration not stated)	0.94	-1.3
CCCOc1ccc(-c2nc(Nc3ccc(Br)cc3)c3ccccc3n2)cc1	0.89	-0.52
COc1ccccc1C(=O)Nc1cccc2nc(C)ccc12	0.91	-1.1
CCCCOC(=O)c1ccc(Nc2cc(C)nc3nnnn23)cc1	0.92	-1
Cc1c(-c2ccccc2)nc2ccccc2c1C(=O)NCc1ccc(Cl)cc1	1	0.12
CCOc1ccccc1NC(=O)c1nn(-c2ccccc2OC)c(=O)c2ccccc12	0.99	-0.16
CCc1cc2c(=O)c(-c3nc4ccccc4s3)c(C)oc2cc1O	1	0.51
CCN1CCCC1CNC(=O)c1cc(-c2cccnc2)nc2ccccc12 (configuration not stated)	1.2	1.8
Cc1ccc(Nc2ncc(C(=O)N3CCN(c4ccc(C(C)C)cc4)CC3)c3ccccc23)cc1Cl	1.3	8.4
COc1ccc(-n2nnc3c(=O)n(CC(=O)NCc4ccccc4Cl)cnc32)cc1	0.95	-0.97
O=C1CN(C(=O)c2c(F)cccc2F)C(c2ccc(F)cc2)c2cc(F)ccc2N1 (configuration not stated)	1.2	0.68
Cn1nnc(NCc2cc(Br)ccc2OCc2cccs2)n1	0.82	-2
COCC(C)NC(=O)c1cc(-c2ccc(F)cc2)on1 (configuration not stated)	1.1	2.2
O=C(NC1CCCCC1)C1c2ccccc2C(=O)N1CCCN1CCOCC1 (configuration not stated)	1.1	0.68
Cc1nc2c(C(=O)NC3CCCCC3)c[nH]n2c(=O)c1Cc1ccc(F)cc1Cl	1.1	1.5
O=C(CN1CCN(Cc2ccccc2F)C1=O)NCc1ccccc1	0.97	-0.41
CCc1ccc(C(C)NC(=O)c2cncc(Br)c2)cc1 (configuration not stated)	0.95	-1.1
Cc1cccc(CSc2nnc(-c3c[nH]c4ccccc34)n2C)c1	0.92	-1.4
CCOc1cccc(C(=O)Nc2nnc(COc3ccc(Br)cc3)s2)c1	1	0.18
Cc1ccc(C)c(NC(=O)c2cnn3c(C)cc(C)nc23)c1	1.1	2.7
O=C(NCc1ccc(Cl)cc1)c1ccc2c(c1)N(Cc1ccc(F)cc1)C(=O)c1ccccc1S2=O (configuration not stated)	1	0.018
O=C(Cn1cnc2ccccc2c1=O)Nc1ccc(Oc2ccccc2)cc1	1.1	1.7
More structures:
SMILES	CBX7 AlphaScr	CBX7 AlphaScr z-score
CC1CCN(C(=O)c2ccc3nc(N4CCC(C)CC4)sc3c2)CC1	1	0.23
COc1ccc(CCNC(=O)c2cnccn2)cc1	1.1	1.7
CCCc1c(O)nc(Nc2nc(C)c3cc(C)cc(C)c3n2)[nH]c1=O	1.1	3.8
Cc1ccc(S(=O)(=O)c2nc(C)oc2NCc2ccco2)cc1	0.94	-0.26
O=C(CCN1C(=O)COc2ccccc21)NCCN1CCN(Cc2ccccc2)CC1	1.1	2.5
O=c1nc(/C=C/c2cccc3ccccc23)cc(C(F)(F)F)[nH]1	0.95	-0.83
COc1ccc(CNC(=O)c2cc3nc(-c4cccs4)cc(C(F)(F)F)n3n2)cc1	1.1	3.2
Cc1ccccc1Cn1cc(S(=O)(=O)c2ccccc2)c(=O)c2cc(F)ccc21	0.97	-0.52
COc1ccc(OCc2nc(C#N)c(NCc3cccnc3)o2)cc1	0.95	-2.2
CCOc1cc2c(cc1OCC)C(c1ccccc1OCC)NCC2 (configuration not stated)	0.91	-1.3

These rows are one share of the data (hit frequency here may not be typical).
